VACV Venus inh: vaccinia inhibition (Venus reporter) | Vaccinia virus Venus reporter expression, fluorescence | Potency, µM (top dose mostly 36.5 µM), without a hit: top-dose activity change, negative = inhibition, usual class: inhibitors | 0.46% of 330,000 active | AID 720580; active means well fitted inhibition curve with a large enough effect; inconclusive means small, poorly fitted or top-dose-only effect; inactive means no such curve, though single readings can be large or run the other way; tested in A549 cells; further: nearly all actives have a fitted effect of over 30% in size; inactives centre near -10
Vaccinia mCherry: inhibitors of vaccinia virus infection (mCherry reporter signal). Vaccinia virus mCherry reporter infection, fluorescence; about a quarter of the inactives have no number. Potency, µM (series often up to 36.5 µM), without a hit: at the top dose activity change, negative = inhibition, actives largely listed as inhibitors. 0.63% of 310,000 active; active = well fitted inhibition curve with a large enough effect; inconclusive = small, poorly fitted or top-dose-only effect; inactive = no such curve, though single readings can be large or run the other way; tested in A549 cells; further: nearly all actives have a fitted effect of over 35% in size; inactives centre near -10
Starred values were filed as active, the others as inactive; i = inactive; ? = inconclusive; / = not tested or not shown; [ ] = remark or other dose. On the % scale 0 is the no-effect control and ±100 the full control effect; potency means the concentration at half of the fitted maximal effect.

Start of the data: the first three compounds as a preview:
SMILES | VACV Venus inh | Vaccinia mCherry
CCOC(=O)C(NC(=O)c1ccc(OC)cc1)(N1CCCC1=O)C(F)(F)F (centres undefined) | -8.0% | i
COc1ccc(S(=O)(=O)NCc2ccc3c(c2)CCN3C(=O)c2ccccc2)cc1OC | -15.9% | -22.9%
COc1ccccc1CNc1ncnc2c1cnn2-c1ccc(C)cc1 | -7.4% | -16.2%

All compounds of this part, from the first entry:
SMILES | VACV Venus inh | Vaccinia mCherry
CCOC(=O)C(NC(=O)c1ccc(OC)cc1)(N1CCCC1=O)C(F)(F)F (centres undefined) | -8.0% | i
COc1ccc(S(=O)(=O)NCc2ccc3c(c2)CCN3C(=O)c2ccccc2)cc1OC | -15.9% | -22.9%
COc1ccccc1CNc1ncnc2c1cnn2-c1ccc(C)cc1 | -7.4% | -16.2%
CCCCn1c(N)c(N(CC)C(=O)CCNC(=O)NC23CC4CC(CC(C4)C2)C3)c(=O)[nH]c1=O | -9.9% | -21.8%
Fc1ccc(CSc2ncnc3scc(-c4ccccc4)c23)cc1 | -7.2% | -3.0%
Cc1csc(NC(=O)c2cncc(Br)c2)n1 | -8.9% | -7.4%
O=C(Cc1ccccc1)NNc1ccc2ccccc2c1 | -11.9% | -2.4%
O=C(OCc1nc2ccsc2c(=O)[nH]1)c1cc(Br)c(Br)s1 | -1.4% | -6.0%
CCCCC(O)(CCCC)C(=O)N/N=C(\C)c1ccc(Cl)cc1 | -11.5% | ?
COc1ccc(C)cc1NC(=O)CN1C(=O)COc2ccc(S(=O)(=O)N3CCCCC3)cc21 | -7.7% | -14.9%
CCN(C(=O)c1coc(=O)c2ccccc12)c1cc(OC)ccc1OC | -8.4% | -11.3%
COc1cc(/C=N/NC(=S)NCc2ccco2)cc(OC)c1OC | -21.3% | -7.8%
Cc1cc(C)n(CC(=O)n2c(C)c(C)c3ccccc32)n1 | -14.0% | /
O=C(c1cccc(C(=O)N(c2ccccn2)C2CCCCC2)c1)N(c1ccccn1)C1CCCCC1 | -23.5% | -26.1%
Cc1cccc(Nc2ccc(C(=O)O)cc2[N+](=O)[O-])c1C | -2.5% | -12.1%
COc1ccc(-c2nc3ccccc3n2OC(=O)N(C)C)cc1 | -24.6% | -3.4%
O=C1N/C(=N\N=C\c2cccs2)SC1Cc1ccc(Cl)cc1 (centres undefined) | ? | ?
Cc1ccc(-n2ccc(=O)c(-c3ccnc(SCc4cccc(Cl)c4)n3)n2)cc1 | ? | /
COc1cccc(/C=N/NC(=O)Cn2nc([N+](=O)[O-])cc2C)c1 | 1.2% | -15.4%
O=C(N/N=C/c1c(O)n(-c2ccccc2Cl)c(=O)c2ccccc12)C1COc2ccccc2O1 (centres undefined) | -0.6% | -16.0%
Cc1cc(C(=O)COc2ccc(Cl)cc2Br)c(C)n1C | -18.9% | -12.2%
Cc1cc(C)c2c(CN3CCCCC3C)cc(=O)oc2c1 (centres undefined) | -2.3% | -5.8%
Cc1c(NC(=O)CCCN2C(=O)c3cccc4cccc(c34)C2=O)c(=O)n(-c2ccccc2)n1C | -7.4% | -17.8%
Cc1ccc(O)c(C(CC(=O)NC2CCCCC2)c2ccccc2)c1 (centres undefined) | -4.1% | -22.4%
Cc1n[nH]c(=O)nc1NCc1ccccc1Cl | -18.9% | -10.0%[1.46 µM]
CCC(=O)NCCc1cc2cc(C)c(C)cc2[nH]c1=O | -5.3% | -1.6%
N=C1c2ccccc2CN1NC(=O)c1ccco1 | -7.7% | -9.5%
COc1ccc2c(c1)[C@H]1[C@H](CO2)[C@H](c2ccccc2)[C@]2(C)C(=O)N(Cc3ccc(C)cc3)CC(=O)N12 | ? | -19.5%
C[C@@H]1CCCCO[C@@H](CN(C)Cc2ccc(C(F)(F)F)cc2)[C@@H](C)CN([C@H](C)CO)C(=O)c2cc(N(C)C)ccc2O1 | ? | ?
Cc1ccc2[nH]c(=O)c(CN(Cc3cccs3)Cc3nnnn3CC3CCCO3)cc2c1 (centres undefined) | -12.2% | -4.5%
C=CCN(CC(=O)O)S(=O)(=O)c1ccccc1C(F)(F)F | 10.1% | 7.8%
CCn1cc(C(=O)OCC(=O)Nc2cc(Cl)ccc2OC)c(=O)c2ccc(C)nc21 | -9.9% | -11.1%
O=C(Nc1ccc(F)cc1)C(c1cc2ccccc2o1)N1CCN(C(=O)c2ccco2)CC1 (centres undefined) | -17.7% | -1.3%
CC1=NN(C(=O)c2cccnc2)C(O)(C(F)(F)F)C1 (centres undefined) | -21.8% | -8.4%
O=C(NCCN1CCOCC1)C(=O)NCC1OCCN1S(=O)(=O)c1ccc(Br)cc1 (centres undefined) | -7.1% | -4.1%
Cc1ccc(C(=O)Nc2ccccc2C(=O)O)cc1NC(=O)COc1c(C)cccc1C | -24.4% | -5.4%
Cc1cc(=O)oc2cc(NC(=O)C3COc4ccccc4O3)ccc12 (centres undefined) | ? | ?
CCCC(=O)NCc1cc(-c2nn(C)c(=O)c3ccccc23)ccc1OC | -5.0% | -3.4%
COc1ccc(NC(=O)C2CCCCN2S(=O)(=O)c2ccc(F)cc2)cc1 (centres undefined) | -6.7% | -13.1%
CC(=O)N1CCCc2cc(S(=O)(=O)N3CCCC(C(=O)Nc4cccc(Cl)c4C)C3)ccc21 (centres undefined) | -18.6% | -12.5%
CC(C)N1CCc2c(sc(NC(=O)c3cc4cc([N+](=O)[O-])ccc4s3)c2C(N)=O)C1 | -9.6% | ?
C[C@H](CO)N1C[C@H](C)[C@@H](CN(C)Cc2ccncc2)Oc2c(NS(=O)(=O)c3cccs3)cccc2C1=O | 1.5% | -2.2%
Nc1c(NC(=O)CC[n+]2ccccc2)cccc1[N+](=O)[O-] | -16.9% | -15.6%
Cc1ccc(C(=O)N2CCN3C(=O)c4ccccc4C23c2ccc(Cl)cc2)cc1 (centres undefined) | ? | /
CCc1cccc(NC(=O)CCSCCC(=O)Nc2cccc(CC)c2)c1 | 2.5% | -15.9%
CCCCNC(=O)c1nn(-c2ccc(C)cc2)c(=O)n(C)c1=O | -8.1% | 2.3%
Cc1cnc(C(=O)Nc2ccc(C)c(S(=O)(=O)N3CCCCCC3)c2)cn1 | -9.2% | i
Cc1ccc(CN(C(=O)c2csnn2)C(C(=O)NC2CCCC2)c2ccccn2)cc1 (centres undefined) | 1.0% | -2.4%
COc1ccc(C(=O)Nc2ccc(C(=O)Nc3nccs3)cc2)cc1[N+](=O)[O-] | -3.6% | i
Cc1ccc(S(=O)(=O)NNC(=O)C23CCC(CC2)C3)cc1 | -10.2% | i

(further entries)
SMILES | VACV Venus inh | Vaccinia mCherry
COc1ccc(CNC(=O)C2CC(=O)N(c3ccc(OCC(=O)N4CCCCC4)cc3)C2)cc1 (centres undefined) | -16.6% | /
CC(C)c1ccc2oc(-c3ccc(Cl)c(NC(=O)c4cccs4)c3)nc2c1 | -12.5% | -7.0%
CCOc1ccc(C2c3[nH]c4ccccc4c3CCN2C(=O)Cc2cccc(OCC)c2OCC)cc1 (centres undefined) | -20.7% | -24.3%
CC1(C)NC(=O)N(CC(=O)Nc2ccc(-c3ccccc3)cc2)C1=O | -2.6% | -1.9%
CC(=O)C1=C(O)C(=O)N(Cc2ccccc2)C1c1ccc(Br)cc1 (centres undefined) | -15.3% | -0.7%
CC(C)(C)NC(=O)C(=O)NNC(=O)C12CC3CC(CC(C3)C1)C2 | -6.9% | -26.5%
Cc1c(N2CCCC2)cc2c(c1N)C(C)(C)CC2(C)C | -6.8% | -15.5%
O=C(Nc1ccccc1C(=O)NCc1ccco1)NC1CCCCC1 | -20.6% | -4.4%
CCc1ccc(OCCCC(=O)O)c(Br)c1 | -7.7% | i
CC(C)(C)C(=O)CC(=O)Nc1ccc(Cl)c(N)c1 | -9.0% | i
CCSc1nnc(NC(=O)CN(C)S(=O)(=O)c2ccc(F)cc2)s1 | -12.5% | i
Cc1ccc(S(=O)(=O)Oc2ccc(/C=N/NC(=O)c3nn(C)cc3[N+](=O)[O-])cc2)cc1 | -21.2% | ?
COc1ccccc1N/N=C/c1c(CO)cnc(C)c1O | -15.7% | -21.7%
O=C(CN1CCN(Cc2ccccc2Cl)C1=O)NCc1ccccc1Cl | 2.7% | -8.1%
CCOC(=O)C(NC(=O)c1cccnc1)(Nc1cccc(C)n1)C(F)(F)F (centres undefined) | ? | /
Cc1cc(C)c2c(=O)c3c(oc2c1)C(=O)N(CCCOC(C)C)C3c1ccccc1F (centres undefined) | -18.6% | -13.9%
CC(Cc1ccccc1)NC(=O)/C=C/c1ccc([N+](=O)[O-])cc1 (centres undefined) | -8.7% | -15.6%
COc1ccc(NC(=O)Cc2nnc(SCC(=O)NC3CCCC3)n2C)cc1 | 3.9% | -8.0%
COc1cccc(OCc2nc(-c3ccc(Br)o3)no2)c1 | -1.2% | 10.3%
Cn1c(Cl)c(C(=O)Nc2ccccc2)c2ccccc21 | -6.1% | -13.0%
O=C(O)/C=C\C(=O)NNC(=O)c1cc(-c2ccccc2)n[nH]1 | -4.1% | -7.0%
Cc1cc2ccccc2c(=O)n1CC(=O)Nc1ccc2c(c1)OCO2 | -8.2% | -3.9%
COC(=O)[C@H](Cc1ccccc1)NC(=O)N1CC(C)OC(C)C1 (some centres undefined) | -6.8% | /
CN(CC(=O)Nc1cccc(F)c1)C(=O)c1ccccc1OCC(=O)Nc1cccc(C(F)(F)F)c1 | -10.9% | i
O=C(NCCN1C(=O)CSC1=O)c1ccccc1 | -8.7% | -10.8%
O=C(NC1=NCCS1)c1ccccc1OCc1ccc(F)cc1 | -18.5% | i
CCOC(=O)C1=C(C)NC(=S)NC1c1ccc(OCC(=O)N2CCCCC2)cc1 (centres undefined) | -8.5% | i
CCCCCC/C=C/c1ccc(OC)c([C@H]2[C@H]3C=CC[C@@H](C)[C@@H]3C(=O)N2Cc2ccccc2)c1 | -21.9% | -3.5%
CC(N)c1csc(Nc2cc(Oc3ccccc3)ncn2)n1 (centres undefined) | -2.7% | 27.8%
Cc1cc(NC(=O)CSc2nc3sc4c(c3c(=O)n2C)CCCC4)no1 | -3.8% | i
CC(=Nc1ccccc1)Nc1ccccc1 | -12.3% | -0.4%
c1ccc(-c2nnc(Cn3c4ccccc4c4nc5ccccc5nc43)o2)cc1 | -2.7% | /
O=C(NNC(=O)C1CC1c1ccccc1)c1ccccc1[N+](=O)[O-] (centres undefined) | 0.0% | i
O=C(NCC1(c2ccccc2)CCCC1)C(=O)NCC1(c2ccccc2)CCCC1 | -6.6% | -18.1%
Cc1ccc(NC(=S)NNc2ccc([N+](=O)[O-])cc2S(=O)(=O)Nc2ccccc2C(=O)O)cc1C | -4.4% | -10.7%
Cc1ccccc1OCC(=O)N1CCCc2ccccc21 | -8.2% | -8.3%
O=C(COc1ccc(S(=O)(=O)N2CCCCC2)cc1)N1CCN(Cc2ccccc2)CC1 | -23.1% | /
O=C(O)COCC(=O)Nc1ccc2c(c1)ncn2CCc1ccccc1 | -14.3% | -14.2%
CC(OCCN1CCCC1)(c1ccc(F)cc1)c1ccc(F)cc1 | -19.9% | -27.4%
COc1ccc(OCCN2C(=O)c3ccccc3C2=O)c([N+](=O)[O-])c1 | -0.3% | i
COc1ccccc1C(=O)N1CCN(c2cccc(C(F)(F)F)c2)CC1 | ? | ?
Cc1cc(C)n(/N=C/c2ccc(O)cc2)c(=O)c1C#N | 0.8% | 5.5%
CCN1CCN(c2ccc(S(=O)(=O)N3CCOCC3)cc2NC(=O)c2cc(F)c(F)c(F)c2F)CC1 | -10.8% | i
COC(=O)[C@H]1C[C@H]1[C@@H](NC(=O)c1ccc[nH]1)c1ccccc1 | -6.2% | i
Cc1nc(-c2ccccc2)nc2[nH]c(C(C)C)cc(=O)c12 | -27.4% | -9.6%
Cc1c(C(=O)N2CCCC2)oc2c1-c1nn(CC(=O)NCCCOC(C)C)cc1CC2 | -6.9% | -11.5%
CCOc1ccc(Nc2c(S(=O)(=O)c3ccc(C)cc3)cnc3ccccc23)cc1 | ? | ?
O=C1[C@H](c2ccccc2)[C@@H](c2ccccc2)N1c1ccncc1 | -9.2% | -3.8%
CCCCN(CC)C(=O)c1c[nH]c2ccc(S(=O)(=O)Nc3cccc(OC)c3)cc2c1=O | 14.2% | -0.9%
O=C(O)CC(C(=O)O)C(=Cc1ccccc1)c1ccccc1 (centres undefined) | 1.1% | i

Following part:
SMILES | VACV Venus inh | Vaccinia mCherry
CCSCc1nnc(SCC(=O)Nc2cccc(SC)c2)n1C | -25.9% | ?
Nc1nccc(/C=C/c2c(F)cccc2Cl)n1 | -18.8% | -11.7%
Cc1cc(NC(=O)CN2C(=O)NC3(CCC(C)CC3)C2=O)no1 (centres undefined) | 2.7% | -8.8%
CCCS(=O)(=O)Nc1cc2c(cc1NCc1ccccc1)n(C)c(=O)n2C | 4.6% | -7.2%
O=C(CS(=O)(=O)c1cn(CC(=O)N2CCCC2)c2ccccc12)Nc1ccccc1 | -1.7% | -20.1%
Nc1c(C(=O)Nc2ccc3c(c2)OCCO3)nnn1Cc1ccc(F)cc1 | -11.2% | i
COc1ccc(C(=O)Cc2nnc(C)s2)c(OC)c1 | 3.0% | -14.4%
Cc1nn(-c2ccccc2)c2c1cc1c(=O)[nH]c(=O)nc-1n2-c1cccc(Cl)c1 | -2.8% | 5.1%
Cc1ccc(CNC(=O)Cn2cnc(S(=O)(=O)N3CCCCC3)c2)o1 | -3.2% | i
O=C(N1CCCC1)C12CC3CC(C1)CC(C(=O)N1CCCC1)(C3)C2 | 3.7% | i
